eIF4H FP inh: inhibitors of RNA binding by human eIF4H. 0.94% of 290,000 active. eIF4H fluorescence polarization binding assay. Q15056. inhibition, % at 35 µM;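 active means 50% or more with normal probe brightness, or confirmed in later tests; inconclusive means above 50% with abnormal brightness, or retests that disagree; inactive means below 50% or failed in later tests; about a fifth of its hits are not listed in these tables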;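 further: calls also rest on retests at 20 µM and on dose response follow-up; 0% = protein and probe with vehicle and 100% = probe without protein; strong numbers were not always called active; many hits fall short of the cut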
UUG fidelity: modulators of start codon recognition fidelity in yeast | S. cerevisiae UUG-firefly luciferase reporter, luminescence/redox ratio | activity score, % at 18.7 µM | 0.13% of 350,000 active | AID 602363;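 active means replicate mean at a twofold rise or more, about +100% in these data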;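 further: firefly luciferase made from a UUG start codon reports start codon fidelity; reporter light over untreated wells divided by growth signal over untreated wells; some hits fall short of that in this replicate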
Rce1 inhib: inhibitors of yeast Ras-converting enzyme. calls only. yeast membranes, quenched prenylated peptide cleavage fluorescence. 0.27% of 290,000 active. Q03530;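 active means fall in fluorescence gain of 50% or more versus controls, with final raw signal at or below 3038400; inconclusive means same 50% fall but final raw signal above 3038400; inactive means fall in fluorescence gain under 50%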;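 further: plate controls were neutral control wells for no effect and wells lacking membranes for full effect; tested at 10 µM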
Target sequence (Q03530 whole entry, looked up): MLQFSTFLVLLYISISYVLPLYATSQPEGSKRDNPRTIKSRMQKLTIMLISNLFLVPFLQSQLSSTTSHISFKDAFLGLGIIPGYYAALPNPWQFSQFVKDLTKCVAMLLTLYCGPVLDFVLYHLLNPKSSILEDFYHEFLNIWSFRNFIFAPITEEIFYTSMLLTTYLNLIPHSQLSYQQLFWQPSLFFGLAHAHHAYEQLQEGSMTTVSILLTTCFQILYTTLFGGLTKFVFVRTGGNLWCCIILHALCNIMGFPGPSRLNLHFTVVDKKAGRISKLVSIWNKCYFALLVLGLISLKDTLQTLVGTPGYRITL
PABP FP inh: PABP-poly(A) binding inhibition | P11940 | PABP-poly(A) RNA binding, fluorescence polarization | inhibition, % at 35 µM | 1% of 290,000 active | AID 2014;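 active means 50% or more with normal probe brightness, or confirmed in later tests; inconclusive means above 50% with abnormal brightness, or retests that disagree; inactive means below 50% or failed in later tests; about a fifth of its hits are not listed in these tables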;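 further: calls also rest on retests at 20 µM and on dose response follow-up; controls were probe without protein and protein plus probe with vehicle; some compounds called inactive have numbers as strong as hits; many hits fall short of the cut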
Target sequence (P11940 whole entry, looked up): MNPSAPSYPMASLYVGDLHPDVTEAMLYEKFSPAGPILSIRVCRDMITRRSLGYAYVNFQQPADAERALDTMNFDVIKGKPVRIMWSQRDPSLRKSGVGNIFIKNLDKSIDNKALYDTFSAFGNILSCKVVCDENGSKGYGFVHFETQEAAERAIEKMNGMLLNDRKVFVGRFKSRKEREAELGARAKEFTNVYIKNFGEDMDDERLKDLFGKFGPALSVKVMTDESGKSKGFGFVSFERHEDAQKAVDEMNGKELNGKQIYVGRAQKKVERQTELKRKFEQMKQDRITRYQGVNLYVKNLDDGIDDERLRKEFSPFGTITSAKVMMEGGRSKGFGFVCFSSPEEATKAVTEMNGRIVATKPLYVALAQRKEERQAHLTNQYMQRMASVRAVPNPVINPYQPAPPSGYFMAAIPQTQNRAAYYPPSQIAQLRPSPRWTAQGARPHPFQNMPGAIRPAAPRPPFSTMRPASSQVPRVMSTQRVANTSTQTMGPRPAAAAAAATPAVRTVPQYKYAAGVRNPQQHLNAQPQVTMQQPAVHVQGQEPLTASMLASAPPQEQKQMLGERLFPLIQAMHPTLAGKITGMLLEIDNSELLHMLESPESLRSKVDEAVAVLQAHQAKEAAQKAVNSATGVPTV
HIV Env fusion: blocks HIV Env-driven cell-cell fusion | HeLa-JRFL Env/CEM21 cell fusion, luciferase | inhibition, % at 12.3 µM | 1.1% of 360,000 active | AID 651610;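 active means mean replicate inhibition score of at least 50 and every replicate individually at or above 50; inconclusive means only one of the two criteria met; inactive means mean below 50 and not all replicates reaching 50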;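 further: 0% = plate neutral controls and 100% = maraviroc near 300 nM; one replicate is shown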
MT1-MMP act inh: blocks activation of human MT1-MMP; AID 651647; P50281; 0.061% of 360,000 active; HT1080 RFP-PRO-GFP cells, GFP/RFP ratio fluorescence, overnight; percent of plate control window, DMSO zero; GFP/RFP ratio change, % at 20 µM;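 active means GFP/RFP ratio change of at least 30% with cell ATP level not reduced by more than half and red fluorescence within 50% of control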; further: strong numbers were not always called active
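Test system: HT1080 RFP-PRO-GFP cells; Benchmarks: DMSO and RFP-L50D-GFP cell wells; Timing: cells overnight before dosing, compound overnight, 37 °C, 5% CO2; Compound: one 20 µM compound dose with 1% DMSO; Read-out: GFP/RFP fluorescence ratio.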
CSC inhib: cancer stem cell inhibition; cancer stem cell-like cells viability, luminescence; inhibition, % at 7.5 µM; 1.1% of 300,000 active;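 active means mean at 75% or more and at least half the replicates too; inconclusive means mean and replicates disagree; tested in HMLE shEcad cells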;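 further: 0% = median of negative and 100% = median of positive control wells; the first replicate is given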
eIF4H FP inh retest: further read-out of eIF4H FP inh, marked with its call; inhibition, %; compound at 20 µM; confirmation average;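 mean of two retest wells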
PABP FP inh retest: second read-out of PABP FP inh, no call of its own (marks repeat the call); inhibition, %; compound at 20 µM; confirmation repeats;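 mean of two retest wells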
MT1-MMP act inh RFP: second read-out of MT1-MMP act inh, no call of its own (marks repeat the call); RFP signal change, %; measured here: RFP expression control read;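 0 = vehicle wells; hits needed this value within 50% of zero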
An asterisk follows results filed as active; i = inactive; ? = inconclusive; . = not tested or not shown; & = joins results of further samples. Rows were taken by chance; any-hit rate near 3%.

SMILES	eIF4H FP inh	UUG fidelity	Rce1 inhib	PABP FP inh	HIV Env fusion	MT1-MMP act inh	MT1-MMP act inh RFP	CSC inhib	others
CC(C(=O)Nc1c2c(cc3c1CCC3)CCC2)N1CCCC1 (stereo unspecified)	1	-19	i	-4	-12	1	7	-9
COC(C(=O)NC(C(C)C)C(C)C)c1ccccc1 (stereo unspecified)	-2	.	i	-9	.	1	3	.
CCCCN1CN(Cc2ccco2)CNC1=S	-3	.	i	-4	.	2	8	5
O=C(Cc1ccccc1[N+](=O)[O-])N1CCN(c2ccc(F)cc2)CC1	-8	.	i	6	2	0	-4	-2
CC(C)Nc1oc(Cc2cccc3ccccc23)nc1C#N	10	-12	i	1	.	-5	-9	0
CCCC#Cc1cnc2c(c1)C(=O)N([C@H](C)CO)C[C@@H](C)[C@H](CN(C)S(=O)(=O)c1cccc(OC)c1)O2	.	54&10	.	.	12	-2	-5	.
O=C(c1ccc(COc2ccccc2Cl)o1)N1CCCC1	-2	-7	i	-3	.	0	1	7
CCc1ccc(C(=O)COC(=O)c2cccnc2Cl)cc1	-5	.	i	-3	-11	3	3	.
CC(C)(C)n1nnnc1C(c1cccnc1)N1CCN(c2ccccn2)CC1 (stereo unspecified)	-4	.	i	-8	8	-2	2	0
COCCCN1C(=O)c2ccc(C(=O)O)cc2C1=O	4	-2	i	5	-142	-2	2	.
CCC(C)c1ccc(S(=O)(=O)N2CCN(S(=O)(=O)c3ccc(NC(C)=O)cc3)CC2)cc1 (stereo unspecified)	-13	6	i	2	2	2	4	0
O=C(COC(=O)c1ncc(Cl)c(Cl)c1Cl)c1ccc(Cl)s1	2	-13	i	17	.	2	7	5
CCCCc1c(O)nc(SCC(=O)N2CCOCC2)n(-c2ccccc2C)c1=O	0	3	i	2	-26	-5	0	12
Cc1ccc(CN2C(=O)S/C(=C\c3ccccc3OCC(=O)O)C2=O)cc1	3	.	i	2	-15	2	1	0
CN(C(=O)C1CCCO1)c1nnc(-c2ccccn2)s1 (stereo unspecified)	-1	-23	i	-4	.	9	4	3
Cc1ccccc1NC(=O)COC(=O)c1cc(=O)c2ccccc2o1	-13	.	i	-6	.	.	.	4
CCN(CCO)c1ccc(Nc2cc(-c3ccc(-c4ccccc4)cc3)ncn2)cc1	.	-16	.	.	-1	-3	-9	.
OC(CCN1CC2CCC(CC2)C1)(Cc1ccccc1)c1ccco1 (stereo unspecified)	.	-21	.	.	13	3	5	.
COc1ccc(C2C(C#N)=C(N)SC(N)=C2C#N)cc1OC	?	-8	i	?	-63	-220	7	-7
Cc1nc(SCC(=O)OCc2ccccc2)c(C#N)c(-c2ccccc2)c1C(=O)Nc1ccccc1	-12	-17	i	-4	-24	-9	-8	-9
CCN1C(=O)C2(/C(=C(\O)c3ccc4c(c3)OCCO4)C(=O)C(=O)N2CCCOC)c2ccccc21 (stereo unspecified)	-8	-8	i	-10	.	1	-2	-10
CC(=O)Nc1ccc(S(=O)(=O)NCC2CCC(C(=O)N3CC(C)CC(C)C3)CC2)cc1 (stereo unspecified)	-16	10	i	7	9	-2	-8	2
COc1ccc(NC(=O)NNc2cc(N3CCOCC3)nc(N3CCOCC3)n2)cc1	-3	.	i	6	4	-1	1	-3
COc1ccc(CN2CC(C(=O)NCCCN3CCN(C)CC3)CC2=O)cc1 (stereo unspecified)	4	-13	i	8	.	5	5	3
CCCn1c(=N)n(CC(=O)c2cccs2)c2ccccc21	-14	-8	i	-2	.	1	1	-18
CCC(NC(=O)c1cc(COc2ccc(Cl)cc2OC)on1)c1ccncc1 (stereo unspecified)	-9	11	i	-4	-50	-3	-9	-3
CCCCSc1cc(C)nc(N)n1	-6	.	i	-5	-10	-2	0	3
O=c1[nH]cc(N=Cc2cc([N+](=O)[O-])ccc2O)c(=O)[nH]1	8	.	i	10	.	.	.	-12
CCOCCn1cnc2sc(C(=O)NCCCN3CCOCC3)c(C)c2c1=O	-13	-11	i	0	20	-2	2	-3
CCOC(=O)C1=C(O)/C(=C/c2cccc(OC)c2O)N=C1C	5	.	i	20	-13	1	6	-9
CCOc1ccc(/C=N/n2nnnc2N)cc1O	-8	2	i	-5	-10	5	6	10
CC(C)CN(Cc1cc(=O)oc2cc(-c3ccccc3)c(O)cc12)CC(C)C	12	-9	i	-1	-13	-6	-6	109*
CN1CCN(C(=O)CCN2C(=O)c3ccccc3S2(=O)=O)CC1	.	-21	i	.	-10	3	1	-11
COc1ccc(-c2nc3ccccc3c(=O)n2NC(=O)Cc2ccccc2)cc1	1	-11	i	46	-18	-6	-2	-30
CCOC(=O)c1cc2c(=O)n3ccccc3nc2n(CCCOC)c1=NC(=O)C(C)(C)C	7	-1	?	10	-25	10	0	-10
O=c1oc2ccccc2c2c1C(O)CO2 (stereo unspecified)	0	-9	i	-11	-9	-2	0	-8
O=C(N/N=C/c1ccncc1)c1cc2ccccc2cc1O	-5	-16	i	0	1	3	4	-8
N#CC1(NC(=O)COc2ccc(C(N)=O)cc2)CCCC1	.	-2	.	.	.	0	0	-5
COc1ccc(N2C(=O)C(C)(C)C2c2c(O)ccc3ccccc23)cc1 (stereo unspecified)	15	10	i	6	28	-4	-4	17
COc1cc2oc3ccccc3c2cc1N(CC(=O)N(C)C)S(=O)(=O)c1ccccc1	1	15	i	0	.	6	3	14
CC(C)CCNC(=O)c1cc(S(=O)(=O)N2CCc3ccccc32)cn1C	-18	2	i	0	14	4	-9	.
COc1ccc([N+](=O)[O-])cc1NC(=O)C(C)OC(=O)c1cccnc1 (stereo unspecified)	-4	.	i	5	-61	-3	2	-3
COc1ccccc1CN(C)C(=O)c1ccc(S(=O)(=O)NCc2ccco2)cc1	.	-6	.	.	-17	4	0	.
COc1ccc(/C(N)=N/OC(=O)c2cccc([N+](=O)[O-])c2C)cc1OC	0	-14	i	0	.	-5	4	-13
CCCCn1nc2cc(C(=O)NCc3ccc(OC)cc3)ccc2c1OCC	0	-2	i	5	-6	1	0	2

Entries above with a tert-butyl group, in the order listed:
SMILES	eIF4H FP inh	UUG fidelity	Rce1 inhib	PABP FP inh	HIV Env fusion	MT1-MMP act inh	MT1-MMP act inh RFP	CSC inhib	others
CC(C)(C)n1nnnc1C(c1cccnc1)N1CCN(c2ccccn2)CC1 (stereo unspecified)	-4	.	i	-8	8	-2	2	0
CCOC(=O)c1cc2c(=O)n3ccccc3nc2n(CCCOC)c1=NC(=O)C(C)(C)C	7	-1	?	10	-25	10	0	-10

The results go on:
SMILES	eIF4H FP inh	UUG fidelity	Rce1 inhib	PABP FP inh	HIV Env fusion	MT1-MMP act inh	MT1-MMP act inh RFP	CSC inhib	others
COCc1ccc(C(=O)OC(C)C(=O)Nc2c(C)n(C)n(-c3ccccc3)c2=O)cc1 (stereo unspecified)	.	3	.	.	-4	2	2	.
COCCCNC(=O)c1cc(OC)c(OC)c(OC)c1	-2	-14	i	2	.	4	7	-16
CCOC(=O)c1c(C)n(C)c2ccc(OC(=O)c3ccc([N+](=O)[O-])cc3)cc12	-8	.	i	5	22	4	5	-6
Cn1c(=O)[nH]c(=O)c2c1nc(N1CCN(Cc3ccccc3)CC1)n2CCSc1ncccn1	-7	-12	i	-1	.	5	10	-7
COc1ccc2c(c1)CCc1c-2n[nH]c1C(=O)NCCC(C)C	-9	-33	i	-3	-135	2	-6	4
Cc1occc1C(=O)NCCc1cccc(Cl)c1	-6	6	i	2	.	-1	3	-6
Cc1c(C)c2cc(Cl)c(O)c(CN3CCCC(C)C3)c2oc1=O (stereo unspecified)	12	-9	?	26	-8	-1	0	-14
CC1CCCN(c2ccc([N+](=O)[O-])cc2C(=O)c2ccccc2)C1 (stereo unspecified)	2	.	i	-6	-16	6	-10	57
Cc1cccn2c(=O)c(/C=C(\C#N)S(=O)(=O)c3ccc(Cl)cc3)c(N3CCC(C(N)=O)CC3)nc12	49	-9	i	61	-12	-4	0	-7	eIF4H FP inh retest=33;PABP FP inh retest=41
O=C(Nc1cccc(S(=O)(=O)NC2=NCCC2)c1)c1ccccc1F	.	-8	.	.	.	-1	-2	4
COc1cccc(CCNS(=O)(=O)CCNC(=O)c2cccc(OC)c2)c1	.	.	i	.	5	-4	1	27
Cc1oc2nc(SCC(=O)Nc3ccc(S(N)(=O)=O)cc3)nc(NC(=O)c3ccccc3)c2c1C	0	-18	i	-5	-46	3	4	-1
CC(C)=CCC/C(C)=C/C=N/NC(=O)c1ccccc1[N+](=O)[O-]	2	-13	i	0	30	0	1	1
COC(=O)COc1nsnc1N1CCOCC1	-2	-8	i	-8	-57	2	-2	-8
COc1ccc(NC(=O)CSc2nnc(CNC(=O)c3cccs3)o2)c(OC)c1	-5	-14	i	-8	-4	3	4	-4
CCOC(=O)C1CCN(C(=O)CCS(=O)(=O)c2ccc3c(c2)CCN3C(=O)CC)CC1	3	.	i	7	1	2	-1	7
CCC(=O)Nc1cccc(C2=NOC3(C2)C[C@@H](C(N)=O)N(C(=O)c2cc([N+](=O)[O-])cc([N+](=O)[O-])c2C)C3)c1 (stereo partly specified)	-15	-2	i	-2	-21	6	-2	10
O=C(/C=C/c1ccccc1)N/C(=C/c1ccccc1)C(=O)N1CCOCC1	-11	.	i	-2	-23	3	6	-8
Cc1cccc(-c2noc(-c3cc4ccccc4oc3=O)n2)c1	-1	0	i	-9	.	7	0	-6
Cc1[nH]c2ccccc2c1C(=O)CN1C(=O)NC2(CCCCCC2)C1=O	.	5	.	.	.	-1	1	-9

7 compounds already listed, arranged by molar mass, descending:
SMILES	eIF4H FP inh	UUG fidelity	Rce1 inhib	PABP FP inh	HIV Env fusion	MT1-MMP act inh	MT1-MMP act inh RFP	CSC inhib	others
Cc1oc2nc(SCC(=O)Nc3ccc(S(N)(=O)=O)cc3)nc(NC(=O)c3ccccc3)c2c1C	0	-18	i	-5	-46	3	4	-1
CCOC(=O)C1CCN(C(=O)CCS(=O)(=O)c2ccc3c(c2)CCN3C(=O)CC)CC1	3	.	i	7	1	2	-1	7
COc1ccc(NC(=O)CSc2nnc(CNC(=O)c3cccs3)o2)c(OC)c1	-5	-14	i	-8	-4	3	4	-4
COc1cccc(CCNS(=O)(=O)CCNC(=O)c2cccc(OC)c2)c1	.	.	i	.	5	-4	1	27
O=C(/C=C/c1ccccc1)N/C(=C/c1ccccc1)C(=O)N1CCOCC1	-11	.	i	-2	-23	3	6	-8
Cc1[nH]c2ccccc2c1C(=O)CN1C(=O)NC2(CCCCCC2)C1=O	.	5	.	.	.	-1	1	-9
COC(=O)COc1nsnc1N1CCOCC1	-2	-8	i	-8	-57	2	-2	-8

Source: PubChem (several laboratories)
